# Source: PubChem BioAssay (several laboratories)
# Rce1 inhib: yeast Ras-converting enzyme inhibition. calls only. 0.27% of 290,000 active. yeast membranes, quenched prenylated peptide cleavage fluorescence. Q03530;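 active = fall in fluorescence gain of 50% or more versus controls, with final raw signal at or below 3038400; inconclusive = same 50% fall but final raw signal above 3038400; inactive = fall in fluorescence gain under 50%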;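 also: plate controls were neutral control wells for no effect and wells lacking membranes for full effect; tested at 10 µM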
# Target sequence (Q03530 whole entry, looked up): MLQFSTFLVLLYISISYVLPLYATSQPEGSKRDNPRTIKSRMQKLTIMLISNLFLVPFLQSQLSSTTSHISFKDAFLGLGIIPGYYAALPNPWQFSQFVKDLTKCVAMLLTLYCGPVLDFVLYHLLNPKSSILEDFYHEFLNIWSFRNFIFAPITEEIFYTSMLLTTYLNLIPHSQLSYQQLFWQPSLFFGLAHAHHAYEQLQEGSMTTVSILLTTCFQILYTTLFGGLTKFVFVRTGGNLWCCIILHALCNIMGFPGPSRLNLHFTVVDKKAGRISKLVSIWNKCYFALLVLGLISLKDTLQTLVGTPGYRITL
# eIF4H FP inh: inhibitors of RNA binding by human eIF4H. inhibition, % at 35 µM. 0.94% of 290,000 active. eIF4H fluorescence polarization binding assay. Q15056;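 active = 50% or more with normal probe brightness, or confirmed in later tests; inconclusive = above 50% with abnormal brightness, or retests that disagree; inactive = below 50% or failed in later tests; about a fifth of its hits are not listed in these tables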;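 also: calls also rest on retests at 20 µM and on dose response follow-up; 0% = protein and probe with vehicle and 100% = probe without protein; strong numbers were not always called active; many hits fall short of the cut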
# Env fusion inh: blocks HIV Env-driven cell-cell fusion | HeLa-JRFL Env/CEM21 cell fusion, luciferase | inhibition, % at 12.3 µM | 1.1% of 360,000 active | AID 651610;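 active = mean replicate inhibition score of at least 50 and every replicate individually at or above 50; inconclusive = only one of the two criteria met; inactive = mean below 50 and not all replicates reaching 50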;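 also: 0% = plate neutral controls and 100% = maraviroc near 300 nM; one replicate is shown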
# CSC inhib: cancer stem cell inhibition | cancer stem cell-like cells viability, luminescence | inhibition, % at 7.5 µM | 1.1% of 300,000 active | AID 2717;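 active = mean at 75% or more and at least half the replicates too; inconclusive = mean and replicates disagree; tested in HMLE shEcad cells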;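 also: 0% = median of negative and 100% = median of positive control wells; the first replicate is given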
# MT1-MMP act inh: inhibitors of human MT1-MMP activation; 0.061% of 360,000 active; GFP/RFP ratio change, % at 20 µM; HT1080 RFP-PRO-GFP cells, GFP/RFP ratio fluorescence, overnight; percent of plate control window, DMSO zero; P50281;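 active = GFP/RFP ratio change of at least 30% with cell ATP level not reduced by more than half and red fluorescence within 50% of control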; also: strong numbers were not always called active
#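 Material: RFP-PRO-GFP reporter HT1080 cells. Dosing: single-point 20 µM compound, 1% DMSO. Controls: DMSO and RFP-L50D-GFP cell wells. Timing: cells overnight before dosing, compound overnight, 37 °C, 5% CO2. Measure: GFP/RFP fluorescence ratio.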
# UUG fidelity: modulators of start codon recognition fidelity in yeast | S. cerevisiae UUG-firefly luciferase reporter, luminescence/redox ratio | AID 602363 | 0.13% of 350,000 active | activity score, % at 18.7 µM;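 active = replicate mean at a twofold rise or more, about +100% in these data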;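 also: firefly luciferase made from a UUG start codon reports start codon fidelity; reporter light over untreated wells divided by growth signal over untreated wells; some hits fall short of that in this replicate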
# PABP FP inh: PABP-poly(A) binding inhibition; P11940; PABP-poly(A) RNA binding, fluorescence polarization; inhibition, % at 35 µM; 1% of 290,000 active;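 active = 50% or more with normal probe brightness, or confirmed in later tests; inconclusive = above 50% with abnormal brightness, or retests that disagree; inactive = below 50% or failed in later tests; about a fifth of its hits are not listed in these tables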;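 also: calls also rest on retests at 20 µM and on dose response follow-up; controls were probe without protein and protein plus probe with vehicle; some compounds called inactive have numbers as strong as hits; many hits fall short of the cut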
# eIF4H FP inh retest: recorded beside eIF4H FP inh, whose call it bears; inhibition, %; compound at 20 µM; confirmation average;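 mean of two retest wells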
# PABP FP inh retest: also measured in PABP FP inh; calls as there; inhibition, %; compound at 20 µM; confirmation repeats;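 mean of two retest wells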
# MT1-MMP act inh RFP: second read-out of MT1-MMP act inh, no call of its own (marks repeat the call); RFP signal change, %; measured here: RFP expression control read;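 0 = vehicle wells; hits needed this value within 50% of zero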
# * marks the source's active call; other numbers are inactive results; i = inactive; ? = inconclusive; nt = not tested or not shown; & = joins results of further samples; [ ] = another dose, or the depositor's remark. The order is random. Share with any hit: about 2.9%.
SMILES,Rce1 inhib,eIF4H FP inh,Env fusion inh,CSC inhib,MT1-MMP act inh,MT1-MMP act inh RFP,UUG fidelity,PABP FP inh,others
Cc1ccc(C(=S)N2CCN(Cc3ccccc3)CC2)cc1,i,-11,-5,-9,0,2,nt,-2,
COc1ccc(/C=N/NC(=O)c2ccc(COc3ccccc3Cl)o2)cc1,i,-5,nt,58,1,-2,-14,10,
Clc1ccc(CSc2ccc(-c3cccnc3)nn2)cc1,i,8,-35,19,5,0,nt,6,
CN(C)c1oc(-c2cccs2)nc1C#N,?,7,nt,-15,1,1,-15,1,
O=C(Nc1ccccc1)c1ccc(CSc2ncccn2)cc1,i,-14,nt,2,3,4,-15,18,
O=C(NCc1ccco1)c1ccc(NS(=O)(=O)c2cccc([N+](=O)[O-])c2)cc1,i,-6,-3,-10,7,7,-18,-6,
CCc1cccc(C)c1NC(=O)C1C2CCC(O2)C1C(=O)O (stereo not given),i,10,-23,19,3,-7,3,12,
Cc1onc(-c2ccccc2)c1-c1nnc(CN2CCN(S(=O)(=O)c3ccccc3)CC2)o1,nt,nt,3,-2,0,-12,-2,nt,
COc1cc(OC)c(NS(=O)(=O)c2cccc(C(=O)OCC(=O)NCC3CCCO3)c2)cc1Cl (stereo not given),i,-7,21,-6,-5,-6,13,-15,
Fc1cccc(F)c1CSc1nc2ccccc2[nH]1,i,-7,-164,-10,10,-3,-23,-4,
O=C(c1ccccc1Br)N(Cc1ccccc1)c1ccccc1,i,93,7,-11,-5,-1,-17,19,eIF4H FP inh retest=0;PABP FP inh retest=-6
Cc1ccc(C(=O)Nc2ccccc2C(=O)O)cc1S(=O)(=O)Nc1ccc(Br)cc1,i,nt,6,17,2,3,nt,nt,
COc1ccccc1-c1cc2nc(NCCc3ccc(S(N)(=O)=O)cc3)ccn2n1,nt,nt,-57,nt,-5,1,-9,nt,
COc1cccc(CN2CCCC(C(=O)N3CCCCC3)C2)c1 (stereo not given),i,11,-5,-11,1,-3,-17,-3,
O=C(O)[C@H]1CCCN1S(=O)(=O)c1cccc2cccnc12,nt,nt,4,0,3,3,-3,nt,
O=[N+]([O-])c1cccc(/C=N/n2c(C3CCCCC3)n[nH]c2=S)c1,i,-7,11,-34,4,1,nt,-14,
Cc1c(C(=O)NN)sc(=S)n1C,i,-2,-2,1,-3,-1,-9,4,
CCc1nnc(NC(=O)C(NC(=O)c2ccccc2Cl)C(C)C)s1 (stereo not given),i,6,2,-6,4,-2,nt,11,
Cc1cc(C(=O)NCc2cccc(Cl)c2)c2ccccc2n1,i,0,nt,9,-2,-2,-10,4,
COc1ccc(/C=C(\NC(=O)c2ccc(OC)cc2)C(=O)NC(CCSC)C(=O)O)cc1 (stereo not given),i,-8,nt,-1,2,4,-7,4,
CN1CCN(Cc2ccc(-c3ccc(Cl)cc3)o2)CC1,i,-3,nt,6,1,1,-12,28,
O=c1c2cccc3c2c(nn1-c1ccccc1)-c1ccccc1-3,i,3,-20,15,2,3,-13,2,
CN1OC(Cn2cc(C#N)c(=O)n(C)c2=O)CC1c1ccccc1 (stereo not given),i,0,-5,-7,1,0,nt,0,
N#CCCNc1c(Cl)cc(Cl)cc1C(=O)O,i,20,nt,-2,2,3,nt,8,

# In the list so far, 3 contain a cyano group:
SMILES,Rce1 inhib,eIF4H FP inh,Env fusion inh,CSC inhib,MT1-MMP act inh,MT1-MMP act inh RFP,UUG fidelity,PABP FP inh,others
CN(C)c1oc(-c2cccs2)nc1C#N,?,7,nt,-15,1,1,-15,1,
CN1OC(Cn2cc(C#N)c(=O)n(C)c2=O)CC1c1ccccc1 (stereo not given),i,0,-5,-7,1,0,nt,0,
N#CCCNc1c(Cl)cc(Cl)cc1C(=O)O,i,20,nt,-2,2,3,nt,8,

# Other compounds follow.
SMILES,Rce1 inhib,eIF4H FP inh,Env fusion inh,CSC inhib,MT1-MMP act inh,MT1-MMP act inh RFP,UUG fidelity,PABP FP inh,others
CC(=O)N1c2ccc(S(=O)(=O)N3c4ccccc4CC3C)cc2CC1C (stereo not given),i,-10,13,22,3,-3,8,-3,
CC(C)(C)OC(=O)Nc1ncnc2c1ncn2C1OC(CO)C2OC(C)(C)OC21 (stereo not given),i,0,-22,8,3,4,-11,-8,
NS(=O)(=O)c1ccc(Oc2ccc(S(N)(=O)=O)cc2)cc1,i,-7,-10,-10,2,4,nt,-4,
O=S(=O)(c1ccc2ccccc2c1)N1CCC(c2nc(-c3ccncc3)no2)CC1,i,4,nt,60,8,-22,-6,-3,
O=C(N/N=C/c1coc2ccccc2c1=O)c1cc2ccccc2o1,i,4,nt,-8,-8,-2,-1,-4,
CC(C)CNC(=S)N1CCC(NC(=O)C23CC4CC(CC(C4)C2)C3)CC1,i,0,-11,-6,-3,-12,-11,-3,
CC(=O)Nc1nonc1-c1nc2ccccc2n1CCC#N,i,0,nt,2,-3,1,-3,-13,
CC(=O)Nc1cccc(-c2ccnc3c2CC(C(=O)Nc2ccc(Cl)cc2)O3)c1 (stereo not given),nt,nt,-3,nt,-1,-15,-20,nt,
Cc1cc(C)cc(N(CC(=O)NCc2cccnc2)S(C)(=O)=O)c1,i,-3,-85,-11,4,-1,-12,-2,
CCC(COC(=O)c1ccccc1)Oc1cc(NCc2ccccc2)c2ncn(C(C)C)c2c1 (stereo not given),nt,nt,18,nt,2,1,-14,nt,
COc1ncnc2c1ncn2CC1COC(C)(C)O1 (stereo not given),nt,nt,8,-6,0,3,3,nt,
CC(=O)C[C@@H](O)CC(=O)[C@@H]1OC(=O)[C@H](C)C/C=C\Cc2ccccc21,nt,nt,3,nt,-6,7,-7,nt,
COc1ccc(/C=C/C(=O)Nc2cccc(S(=O)(=O)NC3=NCCCCC3)c2)cc1,i,-5,-39,-10,-3,-14,-8,11,
Cc1c(N/C(=N/S(=O)(=O)c2cc([N+](=O)[O-])ccc2Cl)c2ccccc2)c(=O)n(-c2ccccc2)n1C,i,-1,-9,nt,0,1,nt,47,
COc1ccc(/C=N/NC(=O)c2cccnc2)cc1CN1CCOCC1,i,-4,11,-10,-4,-1,-13,0,
C[C@H](CO)N1C[C@H](C)[C@@H](CN(C)Cc2ccccc2)Oc2c(NC(=O)C3CCCCC3)cccc2C1=O,nt,nt,7[16.7 µM],-1,2,-11,29&-3,nt,
CC[C@]1(C(=O)OC)[C@H]2C(=O)N(C)C(=O)[C@H]2[C@H]2CN(C)C(=NC3CCCCC3)N21,nt,nt,8,nt,-2,2,-8,nt,
O=C(C1=C[C@H](c2csc3ccccc23)C[C@H](OCc2ccc(CO)cc2)O1)N1CCN(Cc2ccccc2)CC1,i,12,?,-4,-1,-2,-8,-3,
CCOc1ccc(N(CC(=O)N2CCN(c3ccc(F)cc3)CC2)S(=O)(=O)c2c(C)noc2C)cc1,i,0,6,11,6,-2,-12,-4,
Cn1/c(=N/N=C/c2ccc(N3CCOCC3)cc2)sc2ccccc21,i,3,-5,-3,2,-1,-15,-12,
O=C(NC(=S)NC1CCS(=O)(=O)C1)c1ccccc1Br (stereo not given),i,-8,-10,3,-2,1,-14,2,
CC(=O)Nc1ccc(CN2CCCC(C(=O)c3ccc(C(F)(F)F)cc3)C2)cc1 (stereo not given),i,-8,7,10,4,2,nt,-14,
N#Cc1ccc(S(=O)(=O)N2CCN(CC(=O)Nc3ccccc3C(=O)NC3CC3)CC2)cc1,nt,nt,nt,-5,6,1,-14,nt,
O=c1cc(Cl)c2ccccc2n1-c1ccccc1,i,0,1,-2,-4,-2,-11,-10,
CC1CCN(C(=O)CSc2nc(=O)n3cc(Cl)ccc3n2)CC1,i,nt,3,0,-7,0,nt,nt,
CCCCCC1CC1C(=O)N/N=C/c1ccc(N(C)C)cc1 (stereo not given),i,11,-2,0,0,-1,0,5,
COc1ccc(OC)c(NC(=O)c2cc3c(cc2Cl)N2CCCCCC2=NS3(=O)=O)c1,nt,nt,-10,nt,0,-3,-16,nt,
Cc1cccc(C(=O)OC(C)C(=O)NC(=O)NC2CCCCC2)c1O (stereo not given),i,nt,nt,2,-4,-4,-13,nt,
COc1ccc(C(C)(C)C)cc1NC(=O)COC(=O)c1cc(SC)ccc1Cl,i,-26,29,7,1,3,nt,-4,
Cn1c(Cc2c[nH]c3ccccc23)n[nH]c1=S,i,6.5*,nt,-4,-4,1,nt,70,eIF4H FP inh retest=57*;PABP FP inh retest=49
CCC(C)NC(=O)COC(=O)c1oc2ccccc2c1CSc1ccc(Cl)cc1 (stereo not given),i,7,-2,-6,2,-1,nt,2,
COc1ccc(/C=N/NC(=O)CC(=O)NCc2cccnc2)cc1[N+](=O)[O-],i,-7,-15,12,-5,-3,-12,2,

# By substructure: those above containing an aryl methoxy group
SMILES,Rce1 inhib,eIF4H FP inh,Env fusion inh,CSC inhib,MT1-MMP act inh,MT1-MMP act inh RFP,UUG fidelity,PABP FP inh,others
COc1ccc(/C=N/NC(=O)c2ccc(COc3ccccc3Cl)o2)cc1,i,-5,nt,58,1,-2,-14,10,
COc1cc(OC)c(NS(=O)(=O)c2cccc(C(=O)OCC(=O)NCC3CCCO3)c2)cc1Cl (stereo not given),i,-7,21,-6,-5,-6,13,-15,
COc1ccccc1-c1cc2nc(NCCc3ccc(S(N)(=O)=O)cc3)ccn2n1,nt,nt,-57,nt,-5,1,-9,nt,
COc1cccc(CN2CCCC(C(=O)N3CCCCC3)C2)c1 (stereo not given),i,11,-5,-11,1,-3,-17,-3,
COc1ccc(/C=C(\NC(=O)c2ccc(OC)cc2)C(=O)NC(CCSC)C(=O)O)cc1 (stereo not given),i,-8,nt,-1,2,4,-7,4,
COc1ncnc2c1ncn2CC1COC(C)(C)O1 (stereo not given),nt,nt,8,-6,0,3,3,nt,
COc1ccc(/C=C/C(=O)Nc2cccc(S(=O)(=O)NC3=NCCCCC3)c2)cc1,i,-5,-39,-10,-3,-14,-8,11,
COc1ccc(/C=N/NC(=O)c2cccnc2)cc1CN1CCOCC1,i,-4,11,-10,-4,-1,-13,0,
COc1ccc(OC)c(NC(=O)c2cc3c(cc2Cl)N2CCCCCC2=NS3(=O)=O)c1,nt,nt,-10,nt,0,-3,-16,nt,
COc1ccc(C(C)(C)C)cc1NC(=O)COC(=O)c1cc(SC)ccc1Cl,i,-26,29,7,1,3,nt,-4,
COc1ccc(/C=N/NC(=O)CC(=O)NCc2cccnc2)cc1[N+](=O)[O-],i,-7,-15,12,-5,-3,-12,2,
